MT1-MMP act inh: MT1-MMP (human) activation inhibition; P50281; HT1080 RFP-PRO-GFP cells, GFP/RFP ratio fluorescence, overnight; percent of plate control window, DMSO zero; GFP/RFP ratio change, % at 20 µM; 360,000 compounds, 0.061% hits; AID 651647;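 active = GFP/RFP ratio change of at least 30% with cell ATP level not reduced by more than half and red fluorescence within 50% of control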; note: strong numbers were not always called active
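Test system: HT1080 cells expressing an RFP-PRO-GFP fluorescent reporter construct / Compound dosing: single-point 20 µM compound, 1% DMSO / Schedule: cells overnight before dosing, compound overnight, 37 °C, 5% CO2 / Evaluation: GFP/RFP fluorescence ratio / Control set: DMSO and RFP-L50D-GFP cell wells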
PABP FP inh: PABP-poly(A) binding inhibition | P11940 | PABP-poly(A) RNA binding, fluorescence polarization | inhibition, % at 35 µM | 290,000 compounds, 1% hits;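 active = 50% or more with normal probe brightness, or confirmed in later tests; about a fifth of its hits are not listed in these tables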;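 note: calls also rest on retests at 20 µM and on dose response follow-up; controls were probe without protein and protein plus probe with vehicle; some compounds called inactive have numbers as strong as hits; many hits fall short of the cut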
Target sequence (P11940 whole entry, looked up): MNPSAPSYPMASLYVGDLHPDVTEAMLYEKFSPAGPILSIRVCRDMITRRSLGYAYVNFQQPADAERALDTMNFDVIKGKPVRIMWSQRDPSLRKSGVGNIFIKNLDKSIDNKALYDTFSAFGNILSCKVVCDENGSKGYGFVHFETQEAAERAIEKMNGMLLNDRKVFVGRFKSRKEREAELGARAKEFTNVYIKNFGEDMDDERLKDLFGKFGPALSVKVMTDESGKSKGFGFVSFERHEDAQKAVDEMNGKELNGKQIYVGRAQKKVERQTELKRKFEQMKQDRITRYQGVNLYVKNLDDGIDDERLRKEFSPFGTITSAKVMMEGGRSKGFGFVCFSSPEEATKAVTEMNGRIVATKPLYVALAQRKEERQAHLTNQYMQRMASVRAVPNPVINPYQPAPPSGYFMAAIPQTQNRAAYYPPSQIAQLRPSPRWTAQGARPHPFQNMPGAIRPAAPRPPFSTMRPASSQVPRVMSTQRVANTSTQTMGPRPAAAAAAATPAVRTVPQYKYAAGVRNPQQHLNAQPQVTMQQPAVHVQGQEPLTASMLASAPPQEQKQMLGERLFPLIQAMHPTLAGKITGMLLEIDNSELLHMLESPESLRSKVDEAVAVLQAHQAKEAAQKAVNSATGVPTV
UUG fidelity: alters start codon recognition fidelity in yeast | activity score, % at 18.7 µM | S. cerevisiae UUG-firefly luciferase reporter, luminescence/redox ratio | AID 602363 | 350,000 compounds, 0.13% hits;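 active = replicate mean at a twofold rise or more, about +100% in these data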;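 note: firefly luciferase made from a UUG start codon reports start codon fidelity; reporter light over untreated wells divided by growth signal over untreated wells; some hits fall short of that in this replicate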
eIF4H FP inh: inhibitors of RNA binding by human eIF4H; eIF4H fluorescence polarization binding assay; 290,000 compounds, 0.94% hits; inhibition, % at 35 µM; Q15056;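 active = 50% or more with normal probe brightness, or confirmed in later tests; about a fifth of its hits are not listed in these tables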;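 note: calls also rest on retests at 20 µM and on dose response follow-up; 0% = protein and probe with vehicle and 100% = probe without protein; strong numbers were not always called active; many hits fall short of the cut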
Env fusion inh: HIV envelope-mediated fusion inhibition. HeLa-JRFL Env/CEM21 cell fusion, luciferase. inhibition, % at 12.3 µM. 360,000 compounds, 1.1% hits. AID 651610;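 active = mean replicate inhibition score of at least 50 and every replicate individually at or above 50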;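 note: 0% = plate neutral controls and 100% = maraviroc near 300 nM; one replicate is shown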
CSC inhib: cancer stem cell inhibition; cancer stem cell-like cells viability, luminescence; inhibition, % at 7.5 µM; 300,000 compounds, 1.1% hits; AID 2717;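 active = mean at 75% or more and at least half the replicates too; tested in HMLE shEcad cells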;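 note: 0% = median of negative and 100% = median of positive control wells; the first replicate is given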
Rce1 inhib: blocks yeast Ras-converting enzyme. Q03530. yeast membranes, quenched prenylated peptide cleavage fluorescence. calls only. 290,000 compounds, 0.27% hits. AID 2563;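 active = fall in fluorescence gain of 50% or more versus controls, with final raw signal at or below 3038400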;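 note: plate controls were neutral control wells for no effect and wells lacking membranes for full effect; tested at 10 µM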
MT1-MMP act inh RFP: further read-out of MT1-MMP act inh, marked with its call; RFP signal change, %; measured here: RFP expression control read;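 0 = vehicle wells; hits needed this value within 50% of zero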
* hit, by the source's call; i = inactive; . = no result given; & = joins results of further samples; [ ] = dose if it differs, or a comment. Not a hit list; overall some 3% were active at least once.

Molecule	PABP FP inh	Env fusion inh	UUG fidelity	MT1-MMP act inh	eIF4H FP inh	MT1-MMP act inh RFP	Rce1 inhib	CSC inhib
Cc1cccc(N2CCN(C(=O)CN3C(=O)C4CC=CCC4C3=O)CC2)c1C (centres undefined)	9	5	-9	1	-2	-4	i	0
COc1cc(S(=O)(=O)N2CCN(c3ccccc3F)CC2)c(OC)cc1Cl	0	.	-8	-3	-2	-5	i	-14
O=C(COC(=O)c1ccccc1NCCO)NCc1cccs1	.	-3	-23	0	.	3	i	34
C=CCn1c(SCc2nc(N)nc(N3CCCCC3)n2)nnc1-c1ccco1	5	19	-3	-8	-7	-3	i	3
COc1ccc(/C=C(\C#N)C(=O)Nc2cccc3ncccc23)cc1OC	9	26	.	-6	4	-2	i	-3
CCc1ccc2c(c1)C(c1ccc([N+](=O)[O-])cc1)=NNC(c1ccc(C)cc1)=N2	2	-9	-1	-8	4	-2	i	1
Cc1cc(C(=O)CSc2nnc(-c3ccco3)o2)c(C)n1C	.	.	-16	-2	.	-1	.	13
C[C@@H]1COC(=O)[C@@H](NC(=O)OCC2c3ccccc3-c3ccccc32)C/C=C\C[C@@H](CC(=O)N(CCO)Cc2ccccc2)C(=O)N1	.	-10	-8	3	.	-13	.	.
Cc1snc(SCc2cccc(Cl)c2)c1C#N	-4	-2	-12	-4	0	-2	i	6
Clc1ccc(/C=N/Nc2ccccn2)cc1	-7	-42	-23	2	-1	-2	.	-7
Cn1cc(/C=C(\NC(=O)c2ccccc2Cl)C(=O)NCCCN2CCOCC2)c2ccccc21	4	2	-11	-3	-1	4	i	1
NS(=O)(=O)c1ccc(NC(=O)CSc2nnc3n2CCCCC3)cc1	.	.	-11	3	.	3	.	-12
O=C(COc1ccccc1)Nc1nc(-c2cccnc2)cs1	.	-214	-20	-5	.	-8	.	.
C#CCNC(=O)C1=C[C@H](C(C)(C)C)C[C@H](OCCCCO)O1	.	-10[16.7 µM]	-1&-17	-4	.	5	i	0
CCN(CC)CCNC(=O)c1ccc2c(c1)NC(=O)c1ccccc1S2	-7	2	-11	0	1	1	i	3
CC(C)(CNC(=O)c1ccc(NS(=O)(=O)c2ccc(F)c(F)c2)cc1)N1CCOCC1	.	6	-19	6	.	0	i	4
O=C(C1CCCN(S(=O)(=O)c2cnc[nH]2)C1)N1CC(=O)N(CCc2ccccc2)C(=O)C1 (centres undefined)	-7	.	-9	1	-2	9	i	-16
CCOC(=O)c1cc2c(nc1NC(=S)Nc1ccccc1)CC(C)(C)OC2	11	19	.	0	-5	-1	i	-1
CCn1c(C)cc(C(=O)COC(=O)c2ccccc2[N+](=O)[O-])c1C	.	.	-93	-3	.	-1	.	7
Cc1ccc(-c2c(C(=O)N/N=C/c3ccco3)nnn2-c2nonc2N)cc1	0	-7	-13	-5	-8	-3	i	4
c1ccc2c(c1)CCOC2CNCCCN1CCCCC1 (centres undefined)	2	.	1	7	12	6	i	.
Cc1n[nH]c(C)c1S(=O)(=O)N1CCN(C(=O)c2ccco2)CC1	-1	.	-26	4	2	7	i	-11
CCOC(=O)C1CCN(C2=NC(=O)/C(=C/c3ccc(Cl)cc3)S2)CC1	-6	9	9	1	-6	1	i	-5
CC1=NN(C(=O)c2ccc(Cn3ccc([N+](=O)[O-])n3)cc2)C(O)(C(F)(F)F)C1 (centres undefined)	-3	11	-32	-3	2	0	i	-10
Nc1nc(Nc2ccccc2)nc(NCCO)c1[N+](=O)[O-]	6	14	-16	4	-12	-2	i	-2
COc1ccc(-c2csc(NC(=O)CCCc3cccs3)n2)cc1	3	.	-11	1	-8	-6	i	-8
Cn1nnc2cc(C(=O)NC3CCCCC3)ccc21	4	.	-9	4	17	6	i	-24
O=C1NC[C@H](Cc2ccccc2)N(C[C@H]2CCCN2C[C@H](Cc2ccc(O)cc2)N2C[C@H](Cc3ccc(O)cc3)N(CC3CCCCCC3)C(=O)C2=O)C1=O	.	7	-6	-1	.	-1	.	.
O=S(=O)(c1ccc(Cl)cc1)N(CCCN1CCOCC1)Cc1cccs1	7	10	.	0	11	3	i	-8
CC(C)c1ccc(NC(=O)C2(C)Cc3c(-c4cccc(C(N)=O)c4)ccnc3O2)cc1 (centres undefined)	.	8	-2	1	.	-5	.	.
COc1ccc(/C=N/NC(=O)CCC(=O)Nc2ccc(Br)cc2)c(OC)c1	3	-2	-8	2	-14	4	i	1
CCCCNC(=O)CSc1cc(=O)n(C)c2ccccc12	-5	-51	-4	4	0	4	i	-3
Cc1ccccc1Cn1c2ccccc2c2cnn(CC(=O)N3CCN(c4ccccc4)CC3)c(=O)c21	-5	9	10	6	-3	-1	.	.
Cc1ccccc1NC(=O)CCCN1C(=O)C2CC=CCC2C1=O (centres undefined)	-7	2	-16	6	-5	4	i	-5
Cc1ccc(S(=O)(=O)NCc2c(Cl)cccc2Oc2ccccc2)cc1	0	.	4	-1	-5	-3	i	-4
COC(=O)c1ccc2nc(NC(=O)C3CC3)sc2c1	2	-35	-6	-2	-6	-5	i	-14
COc1ccc(S(=O)(=O)N2CCCCC2)cc1NC(=O)C1CC(=O)N(c2ccc3c(c2)OCCO3)C1 (centres undefined)	.	9	.	3	.	0	i	-2
O=C(CCCN1C(=O)S/C(=C\C=C\c2ccccc2)C1=O)Nc1ccc(C(=O)O)cc1	5	-8	-10	-1	-9	1	i	-1
Cc1ccc(CN2CCNC(=O)C2CC(=O)N(C)Cc2cnccn2)cc1 (centres undefined)	4	-7	-23	-2	0	2	i	0
NCCCCCCNS(=O)(=O)c1cccc2c(Cl)cccc12	.	4	-5	-2	.	-8	i	-5
COc1ccc(C)cc1S(=O)(=O)N(CC(=O)O)c1ccc(C)cc1	5	-47	22	-1	-11	4	i	-10
COc1cccc(NC(=O)C2CCN(S(=O)(=O)c3ccc4[nH]c(=O)oc4c3)CC2)c1	-3	13	-6	3	1	0	i	-9
O=C(NCc1ccco1)c1ccc(-c2ccc(Cl)cc2)o1	0	-30	-8	1	-3	0	i	3
CN(CC(=O)Nc1ccc(Cl)c(C(F)(F)F)c1)C(=O)C1CSC2(C)CCC(=O)N12 (centres undefined)	.	-23	-6	-1	.	-3	i	-7
CCOc1ccc(Oc2nc(C)cc(OC)n2)nn1	48	.	.	1	1	4	i	-21
CCc1cc2cc(C)c(C)cc2nc1SCC(=O)Nc1cc(C)on1	4	35	.	0	-3	1	i	-7
COC(=O)C(Cc1ccc(O)cc1)NC(=O)C(C)Oc1ccccc1 (centres undefined)	-2	-8	-7	-3	-8	-4	i	-5
CCOc1ccc(C(=O)COC(=O)CC)cc1	-2	.	.	6	-2	5	i	-9
CNC[C@@H]1Oc2ccc(NS(=O)(=O)c3ccc(OC)cc3)cc2CC(=O)N([C@H](C)CO)C[C@@H]1C	.	.	0	0	.	3	.	-15
COc1ccc(NC(=O)C2Cc3c(-c4ccccc4Oc4ccccc4)ccnc3O2)cc1 (centres undefined)	.	22	-5	-8	.	-17	.	.

Continuation.
Molecule	PABP FP inh	Env fusion inh	UUG fidelity	MT1-MMP act inh	eIF4H FP inh	MT1-MMP act inh RFP	Rce1 inhib	CSC inhib
O=C(C[C@@H]1C/C=C\CC[C@H](Cc2ccc(F)cc2)C(=O)OC[C@@H]2CCCN2C1=O)NCCO	.	-14	-2	0	.	2	.	5
Cc1ccc(N(C(=O)c2snc(C(N)=O)c2N)C(C(=O)NCc2ccccc2)c2ccncc2)c(C)c1 (centres undefined)	-5	5	-7	0	-10	2	.	-11
Cc1cc(NC(=O)COC(=O)C2CC(=O)N(c3ccccc3Cl)C2)no1 (centres undefined)	-4	4	-9	0	-2	6	i	-10
CCN(c1ccccc1)S(=O)(=O)c1ccc(NC(=O)c2nc(S(C)(=O)=O)ncc2Cl)cc1	5	.	6	-6	-5	-2	i	99*
O=C(NCc1ccco1)c1c2c(nc3ccccc13)CCC2	82*	-39	-2	-17	89*	3	i	8
COc1cc(NC(=O)CSCc2ccc(Cl)cc2Cl)c(C(=O)O)cc1OC	5	3	-17	1	0	3	i	-12
CCOc1ccc2nc3c(cc2c1)CN(CCOC)C(=NCCOC)S3	9	-151	-14	-3	-12	-6	i	11
C/C(CC(=O)Nc1ccc(C)c(Cl)c1)=N\NC(=O)C1CCCCC1	11	-8	-15	-1	-20	-1	i	-10
CCC(C)C(=O)Nc1nc(C)c(-c2csc(Nc3ccc(Cl)cc3)n2)s1 (centres undefined)	7	11	-20	9	20	-19	i	34
O=C(CC1Oc2ccccc2NC1=O)NCCCN1CCN(Cc2ccccc2)CC1 (centres undefined)	-3	.	-11	2	0	5	i	-6
O=C(OCN1C(=O)c2ccccc2C1=O)c1cccnc1SC(F)F	4	4	-20	1	3	0	i	18
CC1(C)CC(=O)C(C=NCCN2CCN(C(=O)C34CC5CC(CC(C5)C3)C4)CC2)=C(O)C1	2	-32	-8	0	1	0	i	.
O=C(Oc1ccccc1OC(=O)N1CCOCC1)N1CCOCC1	0	.	-21	-3	-3	-1	i	-15
O=C(CSc1ncccc1-c1nc2ccccc2[nH]1)N1CCc2ccccc21	5	.	-17	-5	7	-4	i	22
COc1cc(C)nc(OCCNC(=O)COc2ccc(Cl)cc2Cl)n1	2	.	2	1	-1	-1	i	-3
CC(C)CCNC(=S)NC1CCCC1	-6	-52	-19	9	0	7	i	-7
Cc1cccc(NC(=O)CCSc2ccccn2)c1	-2	-12	.	4	-1	2	i	-14
O=C(c1ccco1)N1CCN(Cc2cc(=O)oc3cc(O)ccc23)CC1	.	6	-6	-9	.	5	.	-9
Cc1onc(-c2c(Cl)cccc2Cl)c1C(=O)c1c[nH]c(C(=O)NC2CC2)c1	3	4	-4	-1	-4	-2	i	-7
Cc1nc(SCC(=O)NCC2CCCO2)[nH]c(=O)c1C (centres undefined)	.	11	.	1	.	6	i	-16
CC(C)CN(CC(C)C)C(=O)c1cc2c(=O)n3ccccc3nc2s1	-3	-5	-6	-2	6	2	i	1
O=C(CSc1nnc2ccc(-c3ccncc3)nn12)Nc1ccc(F)cc1	.	12	-2	-1	.	0	i	-5
CC1(C)OC2OC(C(=O)N/N=C/c3ccccc3F)C3OC(C)(C)OC3C2O1 (centres undefined)	0	-1	-7	-1	-4	4	i	2
CN(CCOC(=O)c1ccc2c(c1)OCCO2)Cc1ccccc1	15	.	14	1	-5	9	i	-2
COc1cccc(NC(=O)CN(C)C(C)C(=O)NC(=O)NC2CCCCC2)c1 (centres undefined)	.	11	9	0	.	-1	.	.
O=C1N/C(=N/N=C/c2ccc(O)cc2)SC1Cc1ccccc1 (centres undefined)	-5	-18	-15	-2	-1	-1	i	0
CCOc1ccc(NCc2cccn2-c2nnc(N3CCC(C(=O)NCCCN4C(C)CCCC4C)CC3)s2)cc1 (centres undefined)	3	5	-15	-2	-3	-5	i	1
C=CCN(c1ccc(C(=O)N2CCCC2)cc1)S(C)(=O)=O	-14	.	20	1	-8	2	i	2

3 entries drawn at random from the list so far, as already listed:
Molecule	PABP FP inh	Env fusion inh	UUG fidelity	MT1-MMP act inh	eIF4H FP inh	MT1-MMP act inh RFP	Rce1 inhib	CSC inhib
O=C(OCN1C(=O)c2ccccc2C1=O)c1cccnc1SC(F)F	4	4	-20	1	3	0	i	18
COc1cccc(NC(=O)CN(C)C(C)C(=O)NC(=O)NC2CCCCC2)c1 (centres undefined)	.	11	9	0	.	-1	.	.
CCOc1ccc2nc3c(cc2c1)CN(CCOC)C(=NCCOC)S3	9	-151	-14	-3	-12	-6	i	11
